Source: PubChem
HPGD inh = inhibitors of human 15-hydroxyprostaglandin dehydrogenase (HPGD). purified HPGD, NADH fluorescence kinetic, PGE2 substrate. AID 894. actives 4.3% (n = 150,000). Potency, µM, for the others: at the top dose activity change, negative = inhibition, hits mostly inhibitors; active = well fitted inhibition curve with a large enough effect (not every such curve was filed as active); inconclusive = small, poorly fitted or top-dose-only effect, or another doubt; inactive = no such curve, though single readings can be large or run the other way;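 also: top concentration of the series not given in the record; plate controls included wells without enzyme; inactives centre near -10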
Target sequence (P15428 whole entry, looked up): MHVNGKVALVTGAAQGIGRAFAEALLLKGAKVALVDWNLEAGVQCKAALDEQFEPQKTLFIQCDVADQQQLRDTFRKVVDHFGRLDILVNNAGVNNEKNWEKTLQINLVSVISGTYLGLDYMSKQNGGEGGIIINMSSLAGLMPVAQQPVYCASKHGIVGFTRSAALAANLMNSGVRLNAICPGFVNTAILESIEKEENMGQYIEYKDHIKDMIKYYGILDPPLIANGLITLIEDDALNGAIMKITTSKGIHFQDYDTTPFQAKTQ
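NADH formation kinetics: reaction with 30 uM PGE2 and 1 mM NAD+ (final), 20 nM enzyme, Tris-HCl pH 8 with Tween 20, after 15 min compound preincubation at room temperature. Fluorescence change, last versus first of five reads.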
Numbers without * were called inactive; ? = inconclusive. % is scaled to controls: 0 for no effect and ±100 for the full control effect; potency is read from the fitted curve at half-maximal effect. A portion of the library; the hit share may differ from the screen's.

HPGD inh | Compound
? | O=S(=O)(c1ccc(Br)cc1)N1CCN(c2cc(-c3ccccc3)nc3ncnn23)CC1
-13% | CCN=c1scc(C)n1/N=C/c1ccsc1
-4% | CS(=O)(=O)N1CCC2(CC1)CN(c1ccc(-c3ccccc3)cc1)C2
-11% | Cc1cc(C(=O)Nc2ccccc2N2CCOCC2)ccc1[N+](=O)[O-]
-5% | O=C(NCc1ccccc1)C12CN(Cc3ccccc3)CC1C(c1ccc([N+](=O)[O-])cc1)=NO2 (configuration not stated)
-14% | COc1ccccc1-n1c(C)nnc1SCC(=O)Nc1cc(C)cc(C)c1
-20% | O=C(Cn1cnc2c(nnn2Cc2ccc(Cl)cc2)c1=O)NCC1CCCO1 (configuration not stated)
-10% | Cc1cccc(OCC(=O)N/N=C\C=C\c2ccc3c(c2)OCO3)c1C
-7% | CCOC(=O)Cn1cnc([N+](=O)[O-])n1
-7% | CC[C@H](C)C(=O)O[C@H]1CCC=C2C=C[C@H](C)[C@H](CC[C@@H]3C[C@H](O)CC(=O)O3)[C@H]21
2% | CCOC(=O)C1=C(N)Oc2ccc3ccccc3c2C1c1cccnc1 (configuration not stated)
0% | CCCCN(CC)C(=O)Cn1c(=O)sc2ccccc21
-12% | Cc1ccc(N2CC(C(=O)Nc3ccc4c(c3)OCO4)CC2=O)cc1 (configuration not stated)
-17% | Cc1oc(/C=N/NC(=O)CC2(C)OCCO2)cc1Br
-5% | CCC1=C2CC[C@H]3C(=O)N(CC)C(=O)[C@H]3[C@H]2[C@@]2(Cc3ccccc3)C(=NCCOC)OC(=O)N2C1=O
25µM* | CCN(CC)CC(=O)Nc1c(C)cc(C(C)(C)C)cc1C
-22% | COc1ccc(-c2nnc(SCC(=O)Nc3cc(F)ccc3C)o2)cc1
-30% | O=C(N/N=C/C1CC=CCC1)c1ccc(Cl)cc1O (configuration not stated)
-9% | CC1(C)CC(=O)c2cc(C(=O)N3CCCC(C)(C)C3)c(=O)n(-c3ccccc3)c2C1
-20% | O=C(Cc1cccs1)Nc1ccc(NC(=O)c2ccco2)cc1
-13% | O=C(Nc1nnc(C2CC2)s1)c1ccccn1
-1% | CCNCCOC(c1ccccc1)c1ccccc1
-10% | CCOc1ccc(CCNC(=O)CCc2c(C)nc3ncnn3c2C)cc1OCC
? | COc1ccc(NC(=O)CN2C(=O)c3cccc4cccc2c34)cc1OC
-10% | Cn1c(SCC(=O)NNC(=O)Cc2ccccc2)nnc1-c1ccc(Cl)cc1
-10% | O=C(NC1CCCCC1)n1c(=O)oc2ccc(Cl)cc21
-16% | CCC(c1nnc(SCC(=O)Nc2ccc(C(C)=O)cc2)n1C1CCCCC1)N(C)C (configuration not stated)
-4% | CN1CCN(CC(=O)N2c3ccccc3C(C)(c3ccccc3)CC2(C)C)CC1 (configuration not stated)
28µM* | O=C(CSc1cccc[n+]1[O-])c1cc2ccccc2o1
-10% | CCOc1ccccc1NC(=O)N1CCC(NC(=O)c2cccc(C)c2)CC1

No new results follow: entries from further up.
HPGD inh | Compound
? | COc1ccc(NC(=O)CN2C(=O)c3cccc4cccc2c34)cc1OC
-10% | Cn1c(SCC(=O)NNC(=O)Cc2ccccc2)nnc1-c1ccc(Cl)cc1
-10% | O=C(NC1CCCCC1)n1c(=O)oc2ccc(Cl)cc21
-16% | CCC(c1nnc(SCC(=O)Nc2ccc(C(C)=O)cc2)n1C1CCCCC1)N(C)C (configuration not stated)
-4% | CN1CCN(CC(=O)N2c3ccccc3C(C)(c3ccccc3)CC2(C)C)CC1 (configuration not stated)
28µM* | O=C(CSc1cccc[n+]1[O-])c1cc2ccccc2o1
-10% | CCOc1ccccc1NC(=O)N1CCC(NC(=O)c2cccc(C)c2)CC1

The listing picks up, starting 6 compounds before the break.
HPGD inh | Compound
-10% | Cn1c(SCC(=O)NNC(=O)Cc2ccccc2)nnc1-c1ccc(Cl)cc1
-10% | O=C(NC1CCCCC1)n1c(=O)oc2ccc(Cl)cc21
-16% | CCC(c1nnc(SCC(=O)Nc2ccc(C(C)=O)cc2)n1C1CCCCC1)N(C)C (configuration not stated)
-4% | CN1CCN(CC(=O)N2c3ccccc3C(C)(c3ccccc3)CC2(C)C)CC1 (configuration not stated)
28µM* | O=C(CSc1cccc[n+]1[O-])c1cc2ccccc2o1
-10% | CCOc1ccccc1NC(=O)N1CCC(NC(=O)c2cccc(C)c2)CC1
? | Cc1cc(C)cc(Nc2nc(-c3ccc(S(=O)(=O)N4CCCC4)cc3)cs2)c1
-10% | CCCn1c(=O)[nH]c(=O)c2c1nc(-c1ccc(OC(F)F)cc1)n2CCN1CCOCC1
-6% | O=C(NCc1ccccn1)c1cccc(NS(=O)(=O)c2cccc(Cl)c2)c1
-6% | CC1CC(C)CN(S(=O)(=O)c2cc(C(=O)O)c(Cl)s2)C1 (configuration not stated)
-16% | O=S(=O)(NCC1COc2ccccc2O1)c1ccc2ccccc2c1 (configuration not stated)
-26% | COC(=O)c1c(NC(=O)COC(=O)[C@@H](NS(=O)(=O)c2cccc(Cl)c2)C(C)C)sc2c1CCC2
-23% | N#Cc1sc2nc(-c3ccccc3)cc(-c3ccco3)c2c1N
-11% | O=C(CNC(=O)c1ccc(F)cc1)N/N=C/c1cc(Br)ccc1OCc1ccccc1
-17% | CC(C)c1ccc(C(=O)Nc2ccc(N3CCOCC3)cc2)cc1
1% | CC(=O)NC(CC(=O)Nc1ccc(S(=O)(=O)N2CCCCC2)cc1)c1ccccc1 (configuration not stated)
-9% | Cc1cc(SCC(=O)NCCN2C(=O)CSC2=O)nc2c(C)cccc12
-2% | Cc1cccc(C)c1O
9% | CCn1c(SCC(=O)NC(C)(C)C)nnc1-c1ccoc1C
? | Cc1ccc2nc(NC(=O)c3ccc(Cl)s3)sc2c1
-11% | COc1cc(/C=C2/C(=N)N3OC(C)=CC3=NC2=O)ccc1OCCOc1ccc(C)cc1
-24% | c1ccc(C2=Nc3cccc4cccc(c34)N2)cc1
-6% | O=C(O)CCCCCNCc1ccncc1
-12% | COc1ccccc1Cc1nc2ccccc2n1S(=O)(=O)c1ccc(Cl)cc1
0% | CC1=C(C(N)=O)C(c2ccccn2)n2nc(SCc3ccccc3)nc2N1 (configuration not stated)
-7% | CC1Cc2ccccc2N1C(=O)CSc1nnc(Cn2nnc3ccccc32)n1C (configuration not stated)
2% | Cc1ccc(C(C)C)c(OCc2nnc(SCC(=O)Nc3ncc(C)s3)n2C)c1
-4% | CCC(C)Nc1c([N+](=O)[O-])cc(C)cc1[N+](=O)[O-] (configuration not stated)
1% | CC(=O)NC(CCS(C)(=O)=O)C(=O)Nc1ccc(F)cc1Cl (configuration not stated)
-11% | O=c1c2c3c(sc2nc2n1CCCC2)CCCC3
? | CN(C)c1ccc(/C=N/NC(=O)Cn2nnc3ccccc32)cc1
-9% | CCc1ccc(Oc2coc3cc(OC(=O)c4cc5ccccc5oc4=O)ccc3c2=O)cc1
-11% | Cc1cc(C)cc(Oc2nc3c(C)cccn3c(=O)c2/C=C(\C#N)C(=O)NC2CCS(=O)(=O)C2)c1 (configuration not stated)
-21% | CCOc1ccccc1C(=O)Nc1nncs1
-23% | O=C(CSc1nc2ccccc2s1)Nn1cnnc1
-4% | COC(=O)N/N=C/c1cn(Cc2c(Cl)cccc2Cl)c2ccccc12
-23% | O=C(Nc1nc(-c2ccc(Cl)cc2Cl)cs1)c1ccc(OCC2CCCO2)cc1 (configuration not stated)
-11% | CC(C)n1c(CCCO)nc2ccccc21
-16% | O=c1cc(CSc2ccc(Cl)cc2)nc(N2CCOCC2)[nH]1
3% | CCOC(=O)c1c(C)oc2c(CN3CCN(C)CC3)c(Br)c(OC)c(O)c12
-18% | C/C(=N\NC(=O)c1cccc(Cl)c1)c1cccc(NC(=O)C(C)C)c1
-11% | CCOC(=O)C(C)n1cnc2c(nnn2-c2ccc(C)cc2)c1=O (configuration not stated)
-15% | CCOC(=O)c1[nH]c(C)c(C(=O)Nc2cc(Cl)ccc2C)c1C
-25% | CCc1ccc(C(C)NC(=O)c2cc(C)oc2C)cc1 (configuration not stated)
? | O=C(Nc1ccc(S(=O)(=O)Nc2nccs2)cc1)c1cc(-c2ccccc2Cl)nc2ccccc12
-17% | N#C/C(=C\c1ccco1)C(=O)NCC1CCCO1 (configuration not stated)
-5% | O=C(OCc1cccc(F)c1)c1ccc2c(c1)-c1ccccc1C2=O
-3% | Cc1nnc(SCC(=O)N2CC(=O)Nc3ccccc32)n1C
-17% | CCCCc1cc(=O)oc2cc(C)c(CN3CCCC3)c(O)c12
-7% | CCCn1c(CN(Cc2ccccc2)Cc2ccccc2)nc2c1c(=O)n(C)c(=O)n2C
-4% | Cc1ccc2nc(NC(=O)CSc3nnc(C)c(=O)n3N)sc2c1
-20% | CC1Cc2ccccc2N1C(=O)c1ccc(N2CCCC2)c([N+](=O)[O-])c1 (configuration not stated)
-15% | O=C(CCS(=O)(=O)c1ccccc1)Nc1ccccc1-c1nc2ccccc2s1
-5% | Cc1noc(C)c1COC(=O)c1ccccc1Oc1ccccc1
-4% | CC1CCCCN1C(=O)N[C@@H](Cc1ccccc1)C(=O)O (some centres not stated)
-26% | COc1ccc(Nc2ncccc2C(=O)Nc2ccccc2)cc1
-11% | O=C(NCC1c2ccccc2CCN1C(=O)CN1C(=O)c2ccccc2C1=O)C1CCCCC1 (configuration not stated)
5% | Cc1noc(C)c1C(=O)N1CCC[C@@]2(CCN(C(=O)NC(C)C)C2)C1
-10% | COC(=O)NC(c1ccccc1)c1c[nH]c2ccc(OC)cc12 (configuration not stated)
-9% | O=C(CN1CCN(C(=O)c2ccco2)CC1)Nc1ccc2c(c1)OCCO2
-2% | CC(=O)c1cccc(N2C(=O)C3C4CCC(C4=C(C)C)C3C2=O)c1 (configuration not stated)
-11% | CCOC(=O)c1cnc(SCC(=O)Nc2ccc(NC(=O)CC)c(OC)c2)nc1N
-14% | Cc1cc(=O)oc(C)c1C(=O)Nc1cccc2nonc12
-9% | CSc1ncc(F)c(N(CCO)CCO)n1
-2% | Cc1cccc(OCCCCc2c(C)n[nH]c2C)c1C
-3% | Nc1nnc(C2CCCC2)s1

Next section.
HPGD inh | Compound
-6% | COc1cccc(C2(O)CCN(C(=O)Cc3cccnc3)CC2)c1
-2% | O=C(COC(=O)c1cccc(C(F)(F)F)c1)NCc1ccccc1
-3% | O=C1CC(c2cccc(F)c2)SC(N(c2ccccc2)c2ccccc2)=N1 (configuration not stated)
-12% | C=CCn1c(SCC(=O)Nc2cc(C)cc(C)c2)nnc1-c1cnccn1
2% | CC1CCC(NC(=O)C2(C)CCC(=O)N2Cc2cccnc2)CC1 (configuration not stated)
? | CCCCOC(=O)c1cc2c(cn1)[nH]c1ccccc12
-3% | COCCNC(=O)C(c1ccco1)N(C(=O)Cn1nnc2ccccc21)c1ccc(C)cc1C (configuration not stated)
-2% | COc1c(C)cc(Br)cc1C(=O)NCc1cccnc1
-11% | O=C(CCOc1ccccc1)Nc1ccccc1
-16% | CCOc1ccc(N(CC(=O)NC2CCCCC2)C(=O)CSc2nnc(COc3ccccc3)o2)cc1
-15% | O=C(Cn1cncc1-c1ccc([N+](=O)[O-])cc1)Nc1cccc2ccccc12
-18% | COc1cccc(CN(Cc2cccnc2)S(=O)(=O)c2ccc(-n3cnnn3)c(C)c2)c1
-20% | CCCc1cc(Nc2cccc(OCC)c2)n2ncnc2n1
-22% | Cc1ccc(S(=O)(=O)N(C)c2ccc(C(=O)N3CCN(Cc4ccc5c(c4)OCO5)CC3)cc2)cc1
-29% | O=C(CNC(=O)c1ccco1)OCC(=O)c1ccc2ccccc2c1
-13% | Clc1ccc(Oc2cnc3ccccc3n2)cc1
-16% | COC(=O)c1ccc(C(NC(=O)OCc2ccccc2)/C(=C/[C@@H](C)C(=O)NCCF)c2cccnc2)cc1 (some centres not stated)
-16% | Cc1cc(C(=O)OCC(=O)NCCCN2CCCC2=O)c2ccccc2n1
? | O=C(COc1ccc(Cl)cc1Cl)Nc1c(-c2cccs2)nc2ccccn12
-10% | Cc1ccccc1NC(=O)Cn1cnc2c1c(=O)n(C)c(=O)n2C
-3% | COC(=O)c1ccccc1S(=O)(=O)Nc1ccc2cn[nH]c2c1
-5% | O=C(NCCC1=CCCCC1)c1cnc2n(c1=O)CCS2
-2% | O=C(O)CC1=C(O)C(=O)N(c2ccccc2)C1c1ccc(Cl)cc1 (configuration not stated)
-20% | CCCc1cc(OC)c2c(c1)OCO2
-10% | O=C(Oc1cccc(/C=N/Nc2nc(N3CCOCC3)nc(N3CCOCC3)n2)c1)c1ccco1
-12% | COc1ccc(CN(C2CCCC2)S(=O)(=O)c2ccc(-n3cnnn3)cc2)cc1OC
-14% | Cc1cc(C)n(CC(=O)NC2CCCCC2)n1
-12% | FC(F)(F)c1nnc(-c2ccccc2)nc1N1CCOCC1
-11% | O=C(OCn1nnc2ccccc2c1=O)c1ccc2c(=O)n3c(nc2c1)CCC3
-17% | Cc1cc(NS(=O)(=O)c2ccc(Nc3nc(-c4sc(N)nc4C)cs3)cc2)no1
-3% | CCCCC/C=C\C/C=C\C/C=C\CCCCCCC(=O)O[C@H](COCCCCCCCCCCCCCCCC)COP(=O)([O-])OCC[N+](C)(C)C
-8% | COC(=O)Cc1c[nH]c2ccc(OCC(O)CNC(C)C)cc12 (configuration not stated)
-24% | O=C(Nc1cc(C(F)(F)F)ccc1N1CCCCC1)c1ccc(Br)o1
-26% | CC(C)c1ccc(OCc2ccc(C(=O)N3CCN(c4ccccn4)CC3)cc2)cc1
22µM* | Cc1ccccc1-c1nnc(SCc2ccccc2)o1
-1% | COc1cccc(/C=C(/CC(=O)Nc2ccc(N3CCOCC3)cc2)c2nc3ccccc3s2)c1
-8% | Cc1ccc(C)c(S(=O)(=O)N2CCN(CC(=O)N3CCc4ccccc4C3)CC2)c1
